# HCMV NEC inh: inhibitors of HCMV UL50-UL53 interaction, biochemical, HTRF; inhibition, % (concentration not given with the values); HCMV UL50-UL53 nuclear egress complex (human cytomegalovirus); 0.15% of 190,000 active; normalized percent inhibition;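 active means both replicates at 50% or more, plus weaker picks with an unusually low signal ratio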;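 further: stock transfer was 100 nL into about 20 µL; 0% = negative control wells and 100% = wells with untagged competitor protein; inactives centre near -12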
# GIV Gai3 FP: inhibitors of GIV peptide binding to Galpha-i3, primary screen, biochemical, fluorescence polarization, FITC-GIV GBA peptide, rat Galphai3. Guanine nucleotide-binding protein G(i) subunit alpha-3 (Rattus norvegicus), P08753. 90 min; hits give low values; scaled: aluminum fluoride 0%, vehicle 100%. percent of control (FP), % (no concentration beside the values). 0.42% of 210,000 active;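 active means replicate mean at 85% of control or lower, very high polarization wells dropped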;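 further: wells of about 15 µL received 100 nL stock; the first replicate is given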
# Target sequence (P08753 whole entry, looked up): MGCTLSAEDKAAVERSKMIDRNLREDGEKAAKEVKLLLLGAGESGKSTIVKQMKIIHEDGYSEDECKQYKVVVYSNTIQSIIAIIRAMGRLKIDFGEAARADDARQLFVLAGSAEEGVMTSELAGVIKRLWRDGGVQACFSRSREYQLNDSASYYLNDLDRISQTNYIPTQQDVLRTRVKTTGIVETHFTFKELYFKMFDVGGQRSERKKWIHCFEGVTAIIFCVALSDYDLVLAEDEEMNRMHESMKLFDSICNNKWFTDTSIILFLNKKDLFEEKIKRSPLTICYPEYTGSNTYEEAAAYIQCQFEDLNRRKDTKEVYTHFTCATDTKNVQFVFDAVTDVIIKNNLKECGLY
# Sa growth inh: S. aureus growth inhibition at 42 and 30 °C, primary screen, LtaS inhibitor project, RN4220, two temperatures; 0.53% of 170,000 active; relative growth, % (no concentration beside the values); OD600, 20 h, 42 °C; hits give low values;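 active means growth at 42 °C up to 50% and 20 or more points under that at 30 °C, or under 10% at both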;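 further: 300 nL library stock went into each well; scaled to the means of positive and negative controls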
# Sa growth inh second temp: further read-out of Sa growth inh, marked with its call; relative growth, %; measured here: growth at 30 °C;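 optical density after 20 h as mean of two plates; 100% = untreated growth and lower means inhibition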
# Numbers without * were called inactive; / = not tested or not shown; & = joins results of further samples.
molecule,HCMV NEC inh,GIV Gai3 FP,Sa growth inh,Sa growth inh second temp
N#CCn1nc2ccccc2n1,-21,104,102,82
COc1ccc(-n2cc(-c3ccc4c(c3)OCO4)n(CC(=O)Nc3cccc(C)c3C)c2=O)c(OC)c1,-15,104,119,92
COc1ccc(-n2nc(C(=O)N3CCN(c4ccc(F)cc4)CC3)c(=O)n(C)c2=O)cc1,-16,99,/,/
COc1ccc(C2=C(C)C(=O)N(Cc3ccc(C(=O)NCc4ccccc4C)cc3)S2(=O)=O)cc1,/,106,105,94
O=C(CSc1nc(-c2ccccc2)cc(=O)[nH]1)N1CCc2ccccc21,-10,106,112,85
O=C(O)C1CCCN1C(=O)Nc1ccccc1Cl (configuration not stated),-7,100,/,/
CCCNS(=O)(=O)c1ccc(Cl)cc1I,4,102,114,86
O=C(O)C1CCCCC1C(=O)N1CCc2ccccc21 (configuration not stated),-29,99,105,96
COc1ccc(OC)c(NC(=O)CSc2c3c(nc4cc(Cl)ccc24)CCCC3)c1,-34,104,95,91
O=S(=O)(c1ccc2c(c1)OCCO2)N1CCC(O)(c2ccc(Cl)cc2)CC1,-16,103,88,70

# Whole records as entered above. Screens in order: HCMV NEC inh	GIV Gai3 FP	Sa growth inh	Sa growth inh second temp
# Entry for COc1ccc(-n2nc(C(=O)N3CCN(c4ccc(F)cc4)CC3)c(=O)n(C)c2=O)cc1 = -16	99	/	/
# Entry for COc1ccc(-n2cc(-c3ccc4c(c3)OCO4)n(CC(=O)Nc3cccc(C)c3C)c2=O)c(OC)c1 = -15	104	119	92
# Entry for O=C(O)C1CCCN1C(=O)Nc1ccccc1Cl (configuration not stated) = -7	100	/	/

# Going on with the list:
molecule,HCMV NEC inh,GIV Gai3 FP,Sa growth inh,Sa growth inh second temp
Oc1[nH]c2ccc(Br)cc2c1N=NC(=S)NCC1CCCO1 (configuration not stated),-49,/,102,79
Cc1cccc(N2CCN(C(=O)C3CCN(S(=O)(=O)c4c(C)noc4C)CC3)CC2)c1C,-16,103,106,87
N=c1c(C(N)=O)cc2c(=O)n3ccccc3nc2n1Cc1ccccc1,-103,102,92,92
COc1ccc(-c2cc3ncc4c(n3n2)-c2ccccc2OC4)cc1,5,97,/,/
COc1ccc(CCNC(=O)CSc2ncc3c(n2)-c2cc(Cl)ccc2N(Cc2ccccc2)S3(=O)=O)cc1OC,/,106,81,92
CCN(CC)C(=O)Cn1c(=O)oc2ccccc21,-19,96,94,84
O=C(c1ccccc1O)N1CCOCC1,3,/,100,98
CCOC(=O)C1CCN(CCC(=O)Nc2ccc(Br)c(C)c2)CC1,-5,108,103,97
O=C(CCc1ccccc1)N1CCN(CCO)CC1,10,107,91,98
Fc1ccc(-c2csc(Cc3nnc4n3CCCCC4)n2)cc1,-35,/,105,80
CNC(=O)CCCc1cn(Cc2ccccc2Cl)c2ccccc12,/,96,106,88
COc1ccc(Cc2nc3c4c(C)c(C)n(-c5cccc(C)c5)c4ncn3n2)cc1OC,-34,108,/,/
O=C(CSc1cccc[n+]1[O-])NCC1CCCO1 (configuration not stated),-14,/,113,84
COc1cc(C(=O)Nn2c(O)c(C3=c4ccc(Br)cc4=NC3=O)sc2=S)ccc1O,-8,102,/,/
COc1ccc(CCNC(=O)c2c(C)nn(-c3ccc(F)cc3)c2-n2cccc2)c(OC)c1OC,/,105,110,97
Cn1nc(-c2ccc(C(=O)NCC3CCCO3)cc2)c2ccccc2c1=O (configuration not stated),/,105,92,94
CC(=O)N(CCC(c1ccccc1)c1ccco1)Cc1ccc(F)cc1 (configuration not stated),-5,103,100,98
Clc1ccc(C2NCCS2)cc1 (configuration not stated),-25,101,86,94
Cc1cccc(CN2CCN(C(c3ccccc3)c3ccc(Cl)cc3)CC2)c1 (configuration not stated),-17&-15&-48,/,94,80
Cc1ccc(CNC(=O)CSc2nc(N3CCCCC3)nc(N3CCCCC3)n2)cc1,-5,103,115,98
COc1cccc(NC(=S)N(CCN(C)C)C(C)c2ccncc2)c1 (configuration not stated),/,99,134,83
Cc1c(Cc2ccccc2)c(Cl)n2c(nc3ccccc32)c1C#N,/,106,99,84
CCS(=O)(=O)N1Cc2ccccc2CC1C(=O)NCCc1ccccc1 (configuration not stated),5,/,84,95
O=C(CCCn1c(=O)[nH]c2ccsc2c1=O)N1CCCCC1,-1,103,108,87
CCn1c(=O)[nH]c2cc(-c3noc(C4CCC4)n3)ccc21,-31,103,/,/
Cc1sc2ncnc(N3CCN(CCO)CC3)c2c1C,3,/,101,100
CCOc1ccc2c(c1)-c1c(ssc1=S)C(C)(C)N2C(=O)CSc1nnc(C)s1,-29,105,/,/
CC(C)(C)c1cc(NCc2ccccn2)n2ncc(-c3ccc(Cl)cc3)c2n1,-18,106,/,/
Cc1nc(-c2ccc3c(c2)CCN3Cc2nnc(-c3ccco3)o2)cs1,13,/,102,102
CC(Sc1nc2c([nH]c3ccccc32)c(=O)n1-c1ccccc1)c1ccccc1 (configuration not stated),/,102,119,96
C=CCn1c(-c2ccccc2)nn(CN2CC(C)OC(C)C2)c1=S (configuration not stated),-22,/,85,88
CCn1c(C(=O)Nc2ccc(C(C)C)cc2)cc2sc(Cl)cc21,-6,98,100,86
COc1ccc(OC)c(NC(=O)CCNS(=O)(=O)c2ccc3c(c2)oc(=O)n3C)c1,-42,105,109,83
Cc1cc(/C=C2\C(=O)NC(=S)N(C)C2=O)c(C)n1C1CC1,2,103,102,61
Cc1cc(C)n2c(SCCC(C)C)nnc2n1,-44,/,123,86
COc1cc(-c2nnc(SCCOc3ccccc3)o2)cc(OC)c1OC,-2,98,101,91
COc1ccc(-n2c(=O)c3ccc(C(=O)NCc4ccc(C)cc4)cc3n(Cc3cccc(Cl)c3)c2=O)cc1,0,97,102,88
CCN(C(=O)c1ccc2c(SCC(=O)O)c3c(nc2c1)CCC3)c1ccccc1C,-6,102,100,86
CCN1CCN(C(=O)Cn2c(=O)[nH]c3c(-c4ccccc4)c[nH]c3c2=O)CC1,-1,103,/,/
O=C(CN1CCN(S(=O)(=O)N2CCCCC2)CC1)Nc1ccc(Br)cc1,-3,106,95,99
CN(CC(=O)Nc1ccc(Cl)cc1)C(=O)c1ccc(OC(F)F)cc1,14,/,93,100
COC(=O)c1cc(S(=O)(=O)NCC2CCN(Cc3cccc(F)c3)CC2)cn1C,/,97,93,96
FC(F)(F)c1nc2ccccc2n1CCOc1ccccc1,/,100,81,77
COc1ccc(N2CCN(C(=S)C3CCCCC3)CC2)cc1,-7,/,96,96
c1ccc(-c2nnc3sc(-c4ccc5c(c4)OCO5)nn23)nc1,-12,102,/,/
O=C(c1ccc(F)cc1)n1nccc1-c1csc(-c2ccccc2)n1,2,106,110,103
O=C(CS(=O)(=O)c1ccccc1)N1CCc2ccccc21,-28,101,104,96
CCOC(=O)c1c(NC(=O)Cn2cnc3nc(SCC)ncc3c2=O)sc(C)c1C,4,102,/,/
CC(C)CC(NS(=O)(=O)c1cccs1)C(=O)O (configuration not stated),/,98,104,81
CCC1CCCCN1C(=O)c1ccc(OC)cc1 (configuration not stated),-17,/,100,89

# Remaining list, next part:
molecule,HCMV NEC inh,GIV Gai3 FP,Sa growth inh,Sa growth inh second temp
COc1cc(-c2cc3n(C)c(C)c(CCC(=O)NCc4ccccc4)c(=O)n3n2)cc(OC)c1OC,/,107,124,84
COc1ccc(C(CNC(=O)Nc2ccccc2)N2CCN(C)CC2)cc1 (configuration not stated),-10,108,89,90
COc1cc(OC)nc(NC(=O)CSc2nc3ccccc3s2)n1,-9,104,116,92
COc1ccc(S(=O)(=O)Cc2ccc(C(=O)N3CCN(c4cc(C)ccc4C)CC3)o2)cc1,21,107,90,76
N#Cc1ccc(OCn2nnc3ccccc3c2=O)cc1,-69,/,86,84
Cc1cc2c(NC(=O)CCCC(=O)O)cccc2nn1,-57,101,87,91
Fc1ccc(-c2cc3c(nn2)Nc2ccccc2N3)cc1,-3,110,103,93
COc1cc(C(=O)N2CCN(C(=O)Cc3ccccc3)CC2)cc(OC)c1OC,-5,/,108,93
Cn1c(CC2Sc3ccccc3NC2=O)nnc1SCC(=O)c1ccccc1 (configuration not stated),-4,103,113,92
COc1cccc(CNC(=O)CN(C)S(=O)(=O)c2ccc3c(c2)n(C)c(=O)c(=O)n3C)c1,4,102,103,101
COC(CNC(=O)c1cc(-c2ccccn2)nc2ccc(S(=O)(=O)N3CCC(C)CC3)cc12)OC,/,104,110,84
CC1CC(C)(C)NC(=S)N1CCC(=O)Nc1ccc2c(c1)OCCO2 (configuration not stated),/,104,97,91
CCc1ccccc1NC(=O)Cn1c(=O)n(CCc2ccccc2)c(=O)c2ccccc21,-6,103,102,83
NC(=O)C1CCN(C(=O)C2CC(c3ccccc3Cl)=NO2)CC1 (configuration not stated),-21,97,90,89
CC(C)(C)c1[nH]nc2c1C(c1ccc(OC(=O)N3CCOCC3)cc1)C(C#N)=C(N)O2 (configuration not stated),-19,113,/,/
NC(=O)C1CCN(CC(O)c2ccccc2)CC1 (configuration not stated),-16,96,89,86
O=C(NC1C2CCCC1CN(C1CC1)C2)c1ccc(Cl)cc1 (configuration not stated),-21,100,118,91
O=c1[nH]c2ccc(F)cc2c(O)c1-c1ccccc1,-18,98,95,89
CN(C)c1ccc(C(CNC(=O)CSc2nnc(-c3ccc(F)cc3)o2)c2c[nH]c3ccccc23)cc1 (configuration not stated),-7,/,96,80
Fc1ccc2[nH]c(-c3cccs3)cc2c1,-29,113,84,63

# Continued; it opens with the six that closed the last part.
molecule,HCMV NEC inh,GIV Gai3 FP,Sa growth inh,Sa growth inh second temp
CC(C)(C)c1[nH]nc2c1C(c1ccc(OC(=O)N3CCOCC3)cc1)C(C#N)=C(N)O2 (configuration not stated),-19,113,/,/
NC(=O)C1CCN(CC(O)c2ccccc2)CC1 (configuration not stated),-16,96,89,86
O=C(NC1C2CCCC1CN(C1CC1)C2)c1ccc(Cl)cc1 (configuration not stated),-21,100,118,91
O=c1[nH]c2ccc(F)cc2c(O)c1-c1ccccc1,-18,98,95,89
CN(C)c1ccc(C(CNC(=O)CSc2nnc(-c3ccc(F)cc3)o2)c2c[nH]c3ccccc23)cc1 (configuration not stated),-7,/,96,80
Fc1ccc2[nH]c(-c3cccs3)cc2c1,-29,113,84,63
Cc1ccc(NC(=O)CSc2nnc(C)s2)c(C)c1,-12,103,106,101
O=C1c2cccnc2C(=O)N1Cc1ccc(S(=O)(=O)N2CCN(C3CCCCC3)CC2)cc1,6,103,/,/
CC(NC(=O)C1CCN(c2ncccn2)CC1)c1ccncc1 (configuration not stated),9,103,104,101
Cc1csc2nc(COC(=O)c3ccccc3NC(=O)c3ccc(F)cc3)cc(=O)n12,/,99,70,88
COc1c(C)cccc1C(=O)Nc1cc(Cl)ccc1N1CCOCC1,3,107,98,105
O=C(Cc1ccc(F)cc1)NCc1nc2cccnc2n1Cc1ccc(F)cc1,/,107&101,108,86
Cc1cc(F)ccc1NC(=O)CCS(=O)(=O)c1ccc2c(c1)CC(C)N2C(=O)C1CC1 (configuration not stated),/,102,119,93
c1ccc(C2CCC(NCCN3CCOCC3)CC2)cc1 (configuration not stated),-17,101,81,84
CC1CCN(c2nc3ccccc3nc2C(C#N)S(=O)(=O)c2cccc(Cl)c2)CC1 (configuration not stated),19,112,120,79
CC(C)CCNC(=O)c1ccc2nc(-c3cccs3)c(-c3cccs3)nc2c1,/,102,95,91
CCN(CC)CCCNC(=O)C1=C(C)C(=O)OC12CCN(S(C)(=O)=O)CC2,-28,106,/,/
COCCNC(=O)c1nc(Nc2ccc(F)cc2F)c2ccccc2n1,-33,111,97,86
CC(C)(C)C(O)CSc1nc2ccccc2[nH]1 (configuration not stated),-9,100,90,88
CC1=C(C(=O)Nc2ccccc2)C(c2ccccn2)n2nnnc2N1 (configuration not stated),6,108,/,/
COc1ccc(C2Nn3c(nnc3C3CC3)SC2C(=O)c2ccc(F)cc2)cc1 (configuration not stated),-16,/,89,86
O=C(NCCS(=O)(=O)N1CCN(c2ccccc2F)CC1)C(c1ccccc1)c1ccccc1,/,104,93,94
c1ccc(CNc2c3c(nc4ncnn24)CCC3)nc1,-18,101,/,/
COc1ccc(-c2nc(-c3ccc(C)cc3C)cs2)cc1,13,103,99,91
CCC(CC)C(=O)Nc1ccc(SCc2cc(=O)n3oc(C)cc3n2)cc1,-27,110,/,/
NC(=O)N/N=C/c1sc(=O)n(Cc2cccc(C(=O)O)c2)c1Cl,-27,/,106,91
Cc1cccc(Nc2cc(C)nc3ccccc23)c1,-19,/,82,68
O=C(Nc1ccc(-c2nc3cc(NC(=O)c4ccccc4F)ccc3o2)cc1)c1ccccc1F,/,98,106,92
CCN(Cc1ccccc1)C(=O)Cn1c(=O)n(NC(=O)c2ccccc2)c(=O)c2sccc21,/,108,111,104

# High-throughput results: PubChem, ICCB-Longwood Screening Facility, Harvard Medical School
